Source: PubChem BioAssay (Broad Institute)
NOMO-1 viab: STK33 inhibitor candidate reducing NOMO-1 cell viability. NOMO-1 AML viability, CellTiter-Glo luminescence, 72 h. 7.5% of 37,000 active. inhibition, % (test concentration not listed);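 active = most replicates above 80%; inconclusive = exactly half above 80%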;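 note: wells of about 30 µL received 25 nL stock; 0% = median of vehicle wells and 100% = reference inhibitor level; the first replicate is given; inactives centre near 10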
Numbers without * were called inactive; u = inconclusive. A portion of the library. The share of hits here may be higher or lower than overall.

SMILES	NOMO-1 viab
CCOC(=O)c1nnn2c3ccccc3c(=O)n(Cc3ccc(Cl)cc3)c12	13
COC(=O)c1ccccc1NC(=O)Cn1ccc([N+](=O)[O-])n1	-11
C[C@H](CO)N1C[C@H](C)[C@H](CN(C)C(=O)Nc2ccc(C(F)(F)F)cc2)Oc2ccc(NS(=O)(=O)c3ccccc3)cc2CC1=O	8
Cc1ccc(S(=O)(=O)N(CC(N)=O)c2ccc(Br)cc2)cc1	-20
CCN(CC)c1ccc2cc(C(N)=O)c(=Nc3ccc(F)cc3)oc2c1	94*
Cc1noc(C)c1NC(=O)Nc1ccc2c(c1)CC(=O)N([C@@H](C)CO)C[C@H](C)[C@@H](CN(C)C(=O)Nc1ccc(C(F)(F)F)cc1)O2	34
COc1ccc(S(=O)(=O)Nc2ccc3c(c2)C(=O)N([C@@H](C)CO)C[C@@H](C)[C@@H](CN(C)C(=O)NC(C)C)O3)cc1	8
C[C@@H]1CN([C@@H](C)CO)C(=O)c2cccc(NC(=O)Nc3ccc(C(F)(F)F)cc3)c2O[C@@H]1CN(C)C(=O)Nc1ccccc1	112*
COc1ccc(C(=O)COC(=O)CN2C(=O)C3CC=CCC3C2=O)cc1 (stereo unspecified)	31
C#Cc1cccc(Nc2ncnc3cc(OC)c(OC)cc23)c1	96*
Cc1noc(C)c1NC(=O)N(C)C[C@@H]1Oc2ccc(NS(=O)(=O)c3ccc(Cl)cc3)cc2C(=O)N([C@@H](C)CO)C[C@@H]1C	-6
CC(=O)c1cccc(NC(=O)NCc2cnn(C)c2)c1	-8
COc1ccc(OC(C)c2nc(-c3ccncc3)no2)cc1 (stereo unspecified)	17
COc1ccc(-n2c(=S)[nH]c3cc(C(=O)N4CCN(c5ccccc5)CC4)ccc3c2=O)cc1	9
Cc1nn(Cc2ccccc2)c(C)c1CCC(=O)O	10
COC(=O)C1=CO[C@@H](O[C@@H]2O[C@H](CO)[C@@H](O)[C@H](O)[C@H]2O)[C@@H]2[C@@](C)(O)[C@@H](OC(=O)/C=C/c3ccc(OC)c(O)c3)C[C@]12O	10
COc1ccc(CC(=O)c2ccc(O)cc2O)cc1	6
Cc1noc(C)c1NC(=O)Nc1cccc2c1O[C@@H](CN(C)S(C)(=O)=O)[C@H](C)CN([C@H](C)CO)C2=O	18
CC(C)NC(=O)Nc1cccc2c1O[C@@H](CN(C)Cc1ccc(C(=O)O)cc1)[C@H](C)CN([C@H](C)CO)C2=O	16
CC[n+]1c(C=C2C=C(C)CC(C)(C)C2)oc2ccccc21	115*
Cc1noc(C)c1S(=O)(=O)N(C)C[C@H]1Oc2c(NC(=O)C3CCOCC3)cccc2C(=O)N([C@H](C)CO)C[C@H]1C	-32
COc1ccc(CN(C)C[C@@H]2Oc3ccc(NC(=O)Nc4cccc5ccccc45)cc3C(=O)N([C@@H](C)CO)C[C@@H]2C)cc1	34
CCN(CC(=O)Nc1ccc(OC)cc1)S(=O)(=O)c1ccc(Cl)cc1	3
COc1ccc(S(=O)(=O)Nc2cccc3c2O[C@H](CN(C)C(=O)NC(C)C)[C@H](C)CN([C@@H](C)CO)C3=O)cc1	14
COc1ccc(CN(C)C[C@H]2OCCCC[C@@H](C)Oc3ccc(NC(=O)c4ccncc4)cc3C(=O)N([C@H](C)CO)C[C@@H]2C)cc1	-10

Following part:
SMILES	NOMO-1 viab
C[C@H]1CN([C@@H](C)CO)C(=O)c2cccc(NC(=O)C3CCOCC3)c2O[C@@H]1CN(C)C	11
C/C=C(/C)C(=O)OC(C)(C)C1Cc2cc3ccc(=O)oc3cc2O1 (stereo unspecified)	-1
CC(C)NC(=O)N(C)C[C@@H]1OCCCC[C@@H](C)Oc2ccc(NC(=O)c3ccccc3)cc2C(=O)N([C@H](C)CO)C[C@@H]1C	12
O=C(CNCCO)Nc1sc2c(c1C(=O)Nc1ccc(Br)cc1)CCC2	34
CC(=O)Nc1ccc(NC(=O)CCCC(=O)O)cc1	-8
O=C1c2ccccc2C(=O)N1CCc1nc2ccccc2c(=O)n1Cc1ccco1	11
CCc1ccc(-n2c(C)nnc2SCC(=O)Nc2ccc(Cl)cc2Cl)cc1	28
O=C(COc1ccccc1)Nc1ncn[nH]1	-23
COc1ccc(S(=O)(=O)N(C)C[C@@H]2Oc3c(NC(=O)c4ccncc4)cccc3C(=O)N([C@H](C)CO)C[C@H]2C)cc1	-14
C[C@H]1CN([C@@H](C)CO)C(=O)c2cccc(NC(=O)Nc3ccc4c(c3)OCO4)c2O[C@H]1CN(C)Cc1ccccc1	65
C[C@@H]1CN([C@@H](C)CO)C(=O)c2cc(NC(=O)Nc3ccc4c(c3)OCO4)ccc2O[C@@H]1CN(C)Cc1ccccc1	10
Cc1nn2c(CN(c3ccccc3)S(=O)(=O)c3ccccc3)nnc2c2ccccc12	12
O=C(Nc1ccc(N2CCC(C(F)(F)F)CC2)nc1)c1ccc(OC(F)(F)F)cc1	12
Cc1noc(C)c1NC(=O)N(C)C[C@@H]1Oc2c(NC(=O)Nc3ccc(C(F)(F)F)cc3)cccc2C(=O)N([C@H](C)CO)C[C@@H]1C	40
C[C@H](CO)N1C[C@H](C)[C@H](CN(C)Cc2ccc(Oc3ccccc3)cc2)Oc2ccc(NC(=O)NC3CCCCC3)cc2C1=O	27
C[C@H]1CN([C@@H](C)CO)C(=O)c2cccc(NS(=O)(=O)c3cn(C)cn3)c2O[C@H]1CN(C)Cc1ccncc1	13
Cc1cc(C)c(C)c(Cn2c(CCCO)nc3ccccc32)c1C	71
O=C(SCc1cccs1)c1csc(C2COc3ccccc3O2)n1 (stereo unspecified)	-8
Cc1ccc(Oc2ncccc2NC(=O)CSc2ccccn2)c2c1CCC2	23
Cc1cc2nn(-c3ccc(F)cc3)nc2cc1NC(=S)NC(=O)COc1ccccc1	9
C[C@@H]1CN([C@@H](C)CO)C(=O)c2cc(NC(=O)CCCCCC(=O)Nc3ccccc3N)ccc2O[C@H]1CN(C)S(=O)(=O)c1cccs1	45
Cc1cc(Br)cc2c1NC(=O)C2(O)CC(=O)c1ccco1 (stereo unspecified)	63
O=C(O)CSc1ccc(Br)c2cccc(C(=O)O)c12	3
C[C@H]1CN([C@@H](C)CO)C(=O)Cc2cc(NC(=O)CCN3CCOCC3)ccc2O[C@H]1CN(C)S(=O)(=O)c1cccs1	18
C[C@@H]1CN([C@@H](C)CO)C(=O)c2cc(NC(=O)Nc3ccc(C(F)(F)F)cc3)ccc2O[C@H]1CN(C)S(=O)(=O)c1ccc(Cl)cc1	93*

14 neighbouring compounds already listed, for reference:
SMILES	NOMO-1 viab
CC(=O)Nc1ccc(NC(=O)CCCC(=O)O)cc1	-8
O=C1c2ccccc2C(=O)N1CCc1nc2ccccc2c(=O)n1Cc1ccco1	11
CCc1ccc(-n2c(C)nnc2SCC(=O)Nc2ccc(Cl)cc2Cl)cc1	28
O=C(COc1ccccc1)Nc1ncn[nH]1	-23
COc1ccc(S(=O)(=O)N(C)C[C@@H]2Oc3c(NC(=O)c4ccncc4)cccc3C(=O)N([C@H](C)CO)C[C@H]2C)cc1	-14
C[C@H]1CN([C@@H](C)CO)C(=O)c2cccc(NC(=O)Nc3ccc4c(c3)OCO4)c2O[C@H]1CN(C)Cc1ccccc1	65
C[C@@H]1CN([C@@H](C)CO)C(=O)c2cc(NC(=O)Nc3ccc4c(c3)OCO4)ccc2O[C@@H]1CN(C)Cc1ccccc1	10
Cc1nn2c(CN(c3ccccc3)S(=O)(=O)c3ccccc3)nnc2c2ccccc12	12
O=C(Nc1ccc(N2CCC(C(F)(F)F)CC2)nc1)c1ccc(OC(F)(F)F)cc1	12
Cc1noc(C)c1NC(=O)N(C)C[C@@H]1Oc2c(NC(=O)Nc3ccc(C(F)(F)F)cc3)cccc2C(=O)N([C@H](C)CO)C[C@@H]1C	40
C[C@H](CO)N1C[C@H](C)[C@H](CN(C)Cc2ccc(Oc3ccccc3)cc2)Oc2ccc(NC(=O)NC3CCCCC3)cc2C1=O	27
C[C@H]1CN([C@@H](C)CO)C(=O)c2cccc(NS(=O)(=O)c3cn(C)cn3)c2O[C@H]1CN(C)Cc1ccncc1	13
Cc1cc(C)c(C)c(Cn2c(CCCO)nc3ccccc32)c1C	71
O=C(SCc1cccs1)c1csc(C2COc3ccccc3O2)n1 (stereo unspecified)	-8

Further results.
SMILES	NOMO-1 viab
Cc1ccc(-c2nnc(SCC(=O)Nc3cccc([N+](=O)[O-])c3)n2-c2ccccc2)cc1Cl	20
C[C@@H]1CN([C@@H](C)CO)C(=O)c2cc(NC(=O)NC3CCCCC3)ccc2O[C@H]1CN(C)Cc1ccc(-c2ccccc2)cc1	100*
CCn1c2ccccc2c2nnc(SCC(N)=O)nc21	12
O=C(CSc1nc(N2CCCCC2)nc(N2CCCCC2)n1)Nc1ccc(Cl)cc1	61
COc1ccc(NC(=O)C(=O)NCc2ccccn2)cc1	-17
CCOC(=O)c1c(C)oc2ccc(OCC(=O)c3ccc(Cl)cc3)cc12	8
C[C@@H]1CN([C@H](C)CO)C(=O)c2cccc(NC(=O)c3ccno3)c2O[C@H]1CN(C)S(=O)(=O)c1cccs1	13
O=C(O)C12C3CCC4C5C3C1C5(C(=O)O)C42 (stereo unspecified)	-5
CC(C)NC(=O)N(C)C[C@H]1Oc2ccc(NC(=O)Nc3ccc(F)cc3)cc2CC(=O)N([C@@H](C)CO)C[C@@H]1C	5
Cc1ccc(-n2c(C)nnc2SCC(=O)Nc2ccc(Br)c(C)c2)cc1C	30
C[C@@H]1CN([C@H](C)CO)C(=O)c2cc(NC(=O)c3ccncc3)ccc2O[C@H]1CN(C)S(=O)(=O)c1ccccc1	-15
Cc1ccc(S(=O)(=O)CCSC2=CC(=O)CC(C)(C)S2)cc1	63
C[C@@H]1CN([C@H](C)CO)C(=O)c2cccc(NC(=O)Nc3ccc(F)cc3)c2O[C@H]1CN(C)Cc1ccc(-c2ccccc2)cc1	u
C[C@@H]1CN([C@@H](C)CO)C(=O)c2cc(NC(=O)C3CCCCC3)ccc2O[C@@H]1CN(C)Cc1ccc(C(F)(F)F)cc1	-3
CC(C)NC(=O)Nc1cccc2c1O[C@@H](CN(C)S(=O)(=O)c1ccc(Cl)cc1)[C@H](C)CN([C@H](C)CO)C2=O	-10
C/C=C(/C)C(=O)O[C@H]1C[C@@](C)(O)C(=O)[C@@H](OC(=O)/C(C)=C\C)[C@@]2(C)CC[C@@](O)(C(C)C)[C@H]12	34
Oc1ccc(CCCc2ccc3c(c2)OCO3)c(O)c1	19
CCCSc1nnc(NC(=O)c2nc(SC)ncc2Cl)s1	-17
C[C@@H]1CN([C@H](C)CO)C(=O)Cc2cc(NC(=O)Cn3cnnn3)ccc2O[C@H]1CN(C)Cc1ccc(C(=O)Nc2ccccc2N)cc1	3
CC(=O)c1ccc(NC(=O)CCCC(=O)O)cc1	21
CNC[C@@H]1Oc2ccc(NC(=O)CCN3CCOCC3)cc2C(=O)N([C@H](C)CO)C[C@@H]1C	11
COc1ccc(CCNC(=S)N2CCN(C(=O)c3ccco3)CC2)cc1OC	-9
C[C@H]1CN([C@@H](C)CO)C(=O)Cc2cc(NS(=O)(=O)c3ccccc3)ccc2O[C@@H]1CN(C)S(=O)(=O)c1cccs1	-3
COc1cc2c(cc1OC)C(c1ccccc1NC(=O)c1cccc(Cl)c1)=NCC2	-9
COc1ccccc1C(=O)Oc1c(CN2CCOCC2)cc(Cl)c2cccnc12	109*

Next section:
SMILES	NOMO-1 viab
C[C@H]1CN([C@@H](C)CO)C(=O)c2cc(NC(=O)CCC(F)(F)F)ccc2O[C@H]1CN(C)Cc1ccc(Cl)c(Cl)c1	5
C[C@H](CO)N1C[C@H](C)[C@H](CN(C)S(C)(=O)=O)Oc2ccc(NC(=O)C3CC3)cc2CC1=O	2
C[C@H](CO)N1C[C@H](C)[C@@H](CN(C)S(=O)(=O)c2cccs2)Oc2c(NC(=O)c3cnccn3)cccc2C1=O	16
C[C@@H]1CN([C@H](C)CO)C(=O)Cc2cc(N(C)C)ccc2O[C@@H]1CN(C)CC1CC1	8
C[C@H](CO)N1C[C@H](C)[C@H](CN(C)Cc2ccc(Oc3ccccc3)cc2)Oc2ccc(N(C)C)cc2C1=O	67
C[C@@H]1CN([C@H](C)CO)C(=O)c2cc(NC(=O)CCCN(C)C)ccc2O[C@@H]1CN(C)S(=O)(=O)c1cccs1	-4
COC(=O)C1=CN(C(CC(C)C)C(=O)OC)C=C(C(=O)OC)C1c1ccc(Br)cc1 (stereo unspecified)	50
O=C(CSC1CC(=O)N(c2cc(Cl)cc(Cl)c2)C1=O)Nc1ccccc1F (stereo unspecified)	-3
CC(C)CC(NS(=O)(=O)c1ccc(C(C)(C)C)cc1)C(=O)O (stereo unspecified)	10
CSc1ccccc1NC(=O)CN(c1ccc(C)c(Cl)c1)S(C)(=O)=O	9
Cc1noc(C)c1NC(=O)Nc1ccc2c(c1)C(=O)N([C@H](C)CO)C[C@@H](C)[C@H](CN(C)S(=O)(=O)c1cccs1)O2	32
C[C@@H]1CN([C@@H](C)CO)C(=O)c2cccc(NC(=O)Nc3ccc(C(F)(F)F)cc3)c2O[C@@H]1CN(C)Cc1ccc(C(F)(F)F)cc1	u
CCN(CC(=O)Nc1ccc(C)c(C)c1)S(=O)(=O)c1ccc(C)cc1	33
COc1ccc(S(=O)(=O)Nc2cccc3c2O[C@@H](CN(C)Cc2ccc(Oc4ccccc4)cc2)[C@H](C)CN([C@@H](C)CO)C3=O)cc1	19
C[C@H](CO)N1C[C@H](C)[C@H](CN(C)S(=O)(=O)c2ccc(F)cc2)Oc2ccc(NS(=O)(=O)c3ccc(F)cc3)cc2C1=O	29
COc1ccc(S(=O)(=O)Nc2cccc3c2O[C@H](CN(C)S(=O)(=O)c2cccs2)[C@@H](C)CN([C@H](C)CO)C3=O)cc1	5
C[C@@H]1CN([C@H](C)CO)C(=O)c2cccc(NC(=O)C3CCOCC3)c2O[C@@H]1CN(C)C(=O)Nc1ccccc1	-14
COC(=O)c1c(-c2cc(OC)c(OC)c(OC)c2)c2ccnc(OCc3ncccn3)c2c(=O)n1Cc1ccnc(C)c1	-3
O=C(CCc1ccc(O)cc1)c1ccc(O[C@@H]2O[C@H](CO)[C@H](O)[C@H](O)[C@H]2O)cc1O	31
Cn1c(SCC(=O)c2cccc([N+](=O)[O-])c2)nnc1-c1cc2ccccc2o1	12
Cc1c(Cl)cccc1NC(=O)CSc1nnc(-c2cccs2)n1C	-20
